Hsc70 = Hsc70 inhibitors, probe displacement, primary screen, biochemical, fluorescence polarization (AID 568). displacement, % at 20 µM, or IC50 in µM where a hit was titrated. 83,000 tested, under 10 active. Hsc70 fluorescence polarization, probe displacement; higher % means a stronger effect; strong numbers were not always called active;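 active means displacement above 50% without optical interference and an IC50 on retest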;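 further: ATPase domain with a fluorescein-tagged ATP probe; 0% = vehicle and 100% = excess ADP; read after one hour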
MT1-MMP promoter = inhibitors of MT1-MMP promoter transcription, cell-based, luciferase reporter, luminescence (AID 618); MT1-MMP promoter luciferase reporter cells, luminescence; calls from a first round at 10 µM; hits with a dose series show EC50 in µM; 87,000 compounds, 0.62% hits;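 active means over half of the reporter light lost at 10 µM or EC50 under 50 µM; inactive means the rest and hits that failed the dose series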;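 further: actives suppress MT1-MMP promoter-driven transcription so potencies describe inhibitors; HT1080 fibrosarcoma cells; overnight exposure; toxic or luciferase-blocking compounds were not removed from the actives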
WNV NS2B-NS3 inh = inhibitors of WNV NS2B-NS3 protease, primary screen, biochemical, fluorogenic substrate; Genome polyprotein (West Nile virus), P06935; fluorogenic substrate Ex360/Em465; active compounds read low; z-score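 (tested at a level between 10 and 100 µM)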; 65,000 compounds, 0.18% hits;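 active means z-score at -3 or under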;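 further: score is relative to mean and spread of the compound wells of a plate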
Target sequence (P06935 1371-1501 limits assumed): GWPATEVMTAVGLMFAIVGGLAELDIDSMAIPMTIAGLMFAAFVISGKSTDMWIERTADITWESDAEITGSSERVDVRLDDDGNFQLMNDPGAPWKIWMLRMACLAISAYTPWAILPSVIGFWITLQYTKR
Target sequence (P06935 1502-1679 limits assumed): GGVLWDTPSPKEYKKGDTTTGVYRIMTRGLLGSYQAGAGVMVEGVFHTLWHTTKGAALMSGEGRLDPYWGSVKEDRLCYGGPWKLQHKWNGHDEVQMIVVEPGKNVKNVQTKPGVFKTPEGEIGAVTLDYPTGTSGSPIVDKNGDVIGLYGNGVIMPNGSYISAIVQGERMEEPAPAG
* marks the source's active call; other numbers are inactive results; i = inactive; . = no result given. Not all compounds are listed; rates above refer to the full screens.

compound	Hsc70	MT1-MMP promoter	WNV NS2B-NS3 inh
CC(Sc1nc(N(C)C)nc(N2CCOCC2)n1)C(=O)Nc1ccccc1 (stereo not given)	-1.8%	i	-0.29
COc1cccc(OCCn2cc(C(=O)c3ccco3)c3ccccc32)c1	-0.2%	i	-0.19
CCOC(=O)c1[nH]c(C)c(C(=O)N2CCN(c3cccc(Cl)c3)CC2)c1C	-2.3%	i	-0.43
O=C(NC1CCCCC1)C1Cc2ccccc2CN1S(=O)(=O)c1ccc(F)cc1 (stereo not given)	4.5%	i	.
CCCOC(=O)CSc1nnc(-c2cc(OC)c(OC)c(OC)c2)o1	-5.4%	i	-1.4
COC(=O)c1ccc(OCC2c3cc(OC)c(OC)cc3CCN2C(=O)c2ccco2)cc1 (stereo not given)	1.8%	i	-0.18
CC(OCc1ccccc1)C(NC(=O)OC(C)(C)C)C(=O)NCC1CCCO1 (stereo not given)	-1.1%	i	1.1
Cc1onc(-c2ccccc2)c1-c1nc2ccccc2c(=O)o1	0.3%	i	.
CCN(CC)CCn1c(NCc2cc(OC)ccc2OC)nc2ccccc21	0.7%	i	.
Cc1ccc2c(CN3CCN(CCO)CC3)cc(=O)oc2c1C	6.4%	i	.
N#Cc1c(-c2ccc(Cl)cc2)nc2n(c1=O)CCCS2	2.5%	i	.
COc1ccc(OC)c(NC2=NC3(CCCCC3)N=C(N)N2)c1	-6.9%	i	0.25

Compounds listed so far that contain a carbonyl joined to an NH by a bond outside any ring:
compound	Hsc70	MT1-MMP promoter	WNV NS2B-NS3 inh
CC(Sc1nc(N(C)C)nc(N2CCOCC2)n1)C(=O)Nc1ccccc1 (stereo not given)	-1.8%	i	-0.29
O=C(NC1CCCCC1)C1Cc2ccccc2CN1S(=O)(=O)c1ccc(F)cc1 (stereo not given)	4.5%	i	.
CC(OCc1ccccc1)C(NC(=O)OC(C)(C)C)C(=O)NCC1CCCO1 (stereo not given)	-1.1%	i	1.1

Next compounds
compound	Hsc70	MT1-MMP promoter	WNV NS2B-NS3 inh
COc1cc(OC)c(OC)cc1CN1CCN(S(=O)(=O)c2ccc(F)cc2)CC1	-1.5%	i	.
COc1ccc(C(=S)N2CCN(C)CC2)cc1	-8.1%	i	.
COC(=O)c1ccc(NC(=O)CN(Cc2ccc(Cl)cc2)S(C)(=O)=O)cc1	-0.9%	i	.
CCN1CCN(c2ncnc3c2nnn3Cc2ccccc2)CC1	-4.6%	i	-0.37
Clc1ccccc1-c1nn2c(COc3ccccc3)nnc2s1	-2.3%	i	0.39
O=S1(=O)c2cccc3cccc(c23)N1Cc1nnc(-c2ccccc2Br)o1	-16%	i	-0.8
COc1ccc(C(=O)NCc2nnc(SCC(=O)Nc3cc(C)cc(C)c3)o2)cc1OC	0.8%	i	-0.7
CCCCCC/C(=N\NS(C)(=O)=O)c1ccccc1	0.6%	i	.
Cc1nnc(N(C(=O)c2cnccn2)c2ccccc2)s1	1.9%	i	-0.06
CC(=O)Nc1ccc(NC(=O)COC(=O)Cc2cccs2)cc1	1.6%	i	.
COC(=O)CC[C@@H](C(=O)O)N1C(=O)c2ccccc2C1=O	0.5%	i	1.4
Cc1noc(C(=O)Nc2c(C)n(C)n(-c3ccccc3)c2=O)c1Cl	7.6%	i	-0.72
CCN(CC)CCCN=Cc1c(O)n(Cc2ccccc2)c(=O)c2ccccc12	0.7%	i	.
O=C(Nc1cnn(Cc2ccc(Cl)cc2)c1)c1cnccn1	-8.8%	i	-0.56
CC1CCCCN1CCNC(=O)CC1Oc2ccccc2NC1=O (stereo not given)	0.7%	i	0.28
Cn1c(NC(=O)Cc2cccs2)cc(=O)n(C)c1=O	6.9%	i	-0.54
CCOC(=O)c1c(C)oc2cc(Br)c(OCC(N)=O)cc12	3.7%	i	.
COCCCNC(=O)C(C#N)c1nc2ccccc2nc1N1CCCC1 (stereo not given)	0.0%	i	0.22
COC(=O)NCc1cccc(CNC(=O)OC)c1	-11%	i	0.53
O=C(OCCOCCN=C1NS(=O)(=O)c2ccccc21)C1CC(=O)N(c2ccccc2)C1 (stereo not given)	3.2%	i	1.2
COc1ccc(S(=O)(=O)Nc2cc(C)c(O)c(S(=O)(=O)c3ccccc3)c2)cc1	-6.9%	i	1
CC(=O)c1cnc2cc(-c3ccccc3)nn2c1C	3.2%	i	-0.29
O=C(c1ccncc1)N1CCN(c2cccc(C(F)(F)F)c2)CC1	1.7%	i	.
CCn1cc(C(=O)NCCCN(C)C)c(=O)c2cc(F)c(N3CCN(C)CC3)cc21	-3.6%	i	0.76

One compound at a time, as listed above. Values in the order: Hsc70 | MT1-MMP promoter | WNV NS2B-NS3 inh
COc1ccc(S(=O)(=O)Nc2cc(C)c(O)c(S(=O)(=O)c3ccccc3)c2)cc1 in the list: -6.9% | i | 1
CC1CCCCN1CCNC(=O)CC1Oc2ccccc2NC1=O (stereo not given) in the list: 0.7% | i | 0.28
CCN(CC)CCCN=Cc1c(O)n(Cc2ccccc2)c(=O)c2ccccc12 in the list: 0.7% | i | .
COCCCNC(=O)C(C#N)c1nc2ccccc2nc1N1CCCC1 (stereo not given) in the list: 0.0% | i | 0.22
O=C(c1ccncc1)N1CCN(c2cccc(C(F)(F)F)c2)CC1 in the list: 1.7% | i | .

Later entries
compound	Hsc70	MT1-MMP promoter	WNV NS2B-NS3 inh
C=CCc1ccc(OCC(O)CN2CCCCC2C)c(OC)c1 (stereo not given)	-2.3%	i	-0.75
CCOc1cc(C2NC(=O)NC(O)(C(F)(F)F)C2C(=O)c2ccccc2)ccc1OC (stereo not given)	0.9%	i	0.6
Cn1ncc(C#N)c1NC(=O)c1nn2cccnc2c1Cl	-0.8%	i	-1.2
CC(C)CNS(=O)(=O)c1ccc(CCC(=O)N2CCOCC2)cc1	-3.5%	i	1.1
CCOc1ccc(NC(=O)CCC(=O)n2nc(C)cc2C)cc1	-0.2%	i	0.52
Cc1cc(NC(=O)CCS(=O)(=O)c2nc(-c3ccccc3)cc(C(F)(F)F)n2)no1	-2.7%	i	-0.7
COc1ccc(C2C(C(=O)N3CCOCC3)c3ccccc3C(=O)N2c2ccc(OC)cc2)cc1 (stereo not given)	0.3%	i	-0.13
O=C(CN1C(=O)c2ccccc2S1(=O)=O)NC1CCCCCC1	-1.0%	i	-1
CCSc1nc(N2CCOCC2)c2ccccc2n1	-0.1%	i	-0.99
O=C(Nc1ccc(N2CCOCC2)cc1)c1ccc2nc(-c3ccco3)c(-c3ccco3)nc2c1	-2.2%	i	0.23
CCOC(=O)C1CCCN(Cc2nc(N)nc(Nc3ccc(C)cc3)n2)C1 (stereo not given)	-6.0%	i	-0.68
COc1ccc2c(c1)c1nnc(SCC(=O)N3C(C)CCCC3C)nc1n2C (stereo not given)	-4.0%	i	-0.78
CCOc1ccc(OC(=O)c2cccnc2)cc1	24%	i	0.59
COc1cccc(C2CC(c3ccc(F)cc3)Nc3nc(N)nn32)c1 (stereo not given)	-11%	i	1.5
Cc1ccc(-n2c(Cc3cccn3C)nnc2SCC(=O)NCc2ccc3c(c2)OCO3)cc1	-0.7%	i	0.65
C/C(N)=C(/C#N)C(=O)CSc1nnc(SCc2ccc(Cl)cc2)s1	4.7%	i	0.75
COC(=O)C(CCSC)NC(=O)CNC(=O)C1CCCCC1 (stereo not given)	-1.0%	i	-0.28
COCCNCCOCCOc1ccc(Cl)c(C)c1	6.4%	i	.
Cc1[nH]nc2c1C1(C(=O)N(Cc3ccc(Cl)cc3)c3ccccc31)C(C#N)=C(N)O2 (stereo not given)	0.9%	i	0.12
O=C(NC1CCCCC1)N1CCCC(c2nc(-c3cccs3)no2)C1 (stereo not given)	-0.2%	i	.
COc1cccc(-n2nc3c(-n4ncc(C#N)c4N)nnc(C)c3c2C)c1	-0.6%	i	.
COC(=O)COc1ccc(S(=O)(=O)NCc2cccnc2)cc1C	-2.9%	i	-1.1
Cc1cc(C)n(-c2nc3ccccc3nc2N2CCN(C(=O)c3ccc(Cl)cc3)CC2)n1	-3.7%	i	-0.44
C#CCOC(=O)C(NC(=O)c1ccccc1)=C(C)C	6.4%	i	.
COc1ccc2cc(C(=O)N3CCCCCC3)sc(=O)c2c1OC	-4.7%	i	0.32
O=C(NC1(C(F)(F)F)C(=O)Nc2c1c(=O)[nH]c(=O)n2Cc1ccco1)C1CC1 (stereo not given)	-5.3%	i	-0.41
CCN(CC)S(=O)(=O)c1ccc(NCc2ccccc2)nc1	0.3%	i	-0.46
CC(=O)NC(c1cccc([N+](=O)[O-])c1)c1c(OC(C)=O)ccc2ccccc12 (stereo not given)	-2.4%	i	.
CC(=O)OCCn1c(Br)nc2c1c(=O)[nH]c(=O)n2C	4.4%	i	-1.9
CCS(=O)(=O)n1nc(-c2ccccc2)nc1SC	2.8%	i	.
Cc1ccc(-n2nnc3c(=O)n(CC(=O)N4CCC(C)CC4)cnc32)cc1	-6.8%	i	-0.37
COc1cc(OC)cc(C(=O)N2CCN(Cc3ccccc3C(F)(F)F)CC2)c1	3.1%	i	-0.93
CCCCCSc1nc(N2CCOCC2)c2c(c1C#N)CC(C)(C)OC2	1.0%	i	0.58
CC(=O)c1cn(CC(=O)Nc2c(C)cccc2C)c2ccccc12	-2.2%	i	.
CN1CCN(C(=O)c2ccc(COc3ccc(C(C)(C)C)cc3)o2)CC1	1.3%	i	.
Cc1ccn(C(=O)c2cc3cc(Cl)ccc3oc2=O)n1	0.4%	i	.
CCOC(=O)c1sc2nc3c(cc2c1N)COC(C)(CC)C3 (stereo not given)	-3.1%	i	.
COC(=O)N/N=C/c1ccc([N+](=O)[O-])o1	-0.2%	i	.
O=C(NC1C=CS(=O)(=O)C1)c1sc2ccccc2c1Cl (stereo not given)	-3.0%	i	-0.66
Cc1cc(C(=O)CSc2nc3ccccc3n2C)c(C)n1C	0.7%	i	.
COc1ccc(C2C(C(C)=O)=C(O)C(=O)N2C)c(OC)c1 (stereo not given)	0.2%	i	-0.57
CCOC(=O)c1cc2sc(C)cc2n1CC(=O)Nc1ccc2c(c1)OCCO2	-4.4%	i	0.2
Cc1cc(OCCOCCNC(C)C)cc(C)c1Cl	-0.3%	i	.
CCOC(=O)c1cnc(SC2CCc3ccccc3C2=O)nc1N (stereo not given)	-7.2%	i	-0.78
COC(=O)c1ccc(CSc2nc3ccccc3c(=O)n2Cc2ccco2)o1	0.2%	i	0.24
CCCn1c(=O)c(C(=O)NCc2ccc(OC)c(OC)c2)c(O)c2ccccc21	2.9%	i	-0.29
COc1cc2c(cc1OC)C(C(=O)N1CCN(c3ccccn3)CC1)C(c1cccs1)N(C)C2=O (stereo not given)	-4.3%	i	1.4
COc1ccccc1-c1nnc(SCC(=O)NCc2c(C)c(Cl)cc(C(C)C)c2O)o1	0.8%	i	-0.12
CCOC(=O)CCCCC(=O)c1[nH]c(=O)[nH]c1CSc1nc(C)cc(C)n1	5.4%	i	1.5
CCC(C)NC(=O)Nc1ccc2c(c1)N(C)C(=O)c1ccccc1S2 (stereo not given)	3.2%	i	.
CN(C)Cc1c(O)ccc2c3c(c(=O)oc12)CCCCC3	2.5%	i	.
CCCn1c(CN2CCCCC2C)nc2c1c(=O)n(C)c(=O)n2C (stereo not given)	3.2%	i	-1.5
O=C(Nc1ccccc1Cl)c1ccn[nH]1	0.7%	i	.
CCCCc1nc(NCCNC(=O)c2ccccc2)c(C#N)c2c1CSC(C)(C)C2	-5.9%	i	.
Nc1nnc(N2CCCCC2)s1	4.3%	i	-0.01
CCC(CC)C(=O)N1CCN(Cc2ccc3c(c2)OCO3)CC1	2.2%	i	.
CCOc1ccccc1NC(=O)NC1(C(=O)N2CCOCC2)CCCCC1	-3.2%	i	1.3
Cc1ccc(SCC(=O)NC(C)(C)C)cc1	1.4%	i	.
CC(C)c1nc2ccc(NC(=O)C34CC5CC(CC(C5)C3)C4)cc2[nH]1	-0.2%	i	.
CN(C)/C=C1\N=C(c2cccs2)OC1=O	6.0%	i	-0.64

The results go on:
compound	Hsc70	MT1-MMP promoter	WNV NS2B-NS3 inh
COc1ccc(NC(=O)CSc2nnc(-c3cccs3)n2-c2ccccc2)cc1	-1.9%	i	0.16
COc1cccc(-c2nnc3sc(-c4cccs4)nn23)c1	-2.7%	i	-0.4
Cc1nn(Cc2c(Cl)cccc2Cl)c(C)c1C(=O)NCc1ccc(C)n1C	0.7%	i	.
O=C1CC(c2ccc(F)cc2)CC(O)=C1C=NCCN1CCN(C(=O)Nc2ccccc2)CC1 (stereo not given)	132%	i	-0.63
COc1ccccc1N1CCN(Cc2ccco2)CC1	-2.6%	i	-0.87
CCNC(=O)N1CCNC(=O)C1CC(=O)Nc1ccc(C(=O)OCC)cc1 (stereo not given)	2.4%	i	-0.78
S=c1[nH]nc(-c2ccncc2)n1CC1CCCO1 (stereo not given)	-1.1%	i	-1.4
CCCCOc1ccc(CSc2nncn2N)cc1	-3.2%	i	2.6
Cc1[nH]c2ccccc2c1CCC(N)=O	-2.1%	i	-0.34
CCOC(=O)/C=C/S(=O)(=O)c1ccc(NC(C)=O)cc1	4.8%	i	2.2
Cc1cc(=O)oc(C)c1C(=O)OCC(=O)c1ccc(Cl)cc1	-1.2%	i	.
Cc1cc(C)c2c3c(cn2n1)c(=O)n(C)c(=O)n3C	4.6%	i	.
